Source: PubChem BioAssay
YopH inh – inhibitors of Yersinia enterocolitica YopH tyrosine phosphatase; fluorescence Ex485/Em525; actives 0.16% (n = 140,000); inhibition, %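 (about 10 µM by stock and volumes)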;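 active = inhibition of 50% or more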;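 note: controls were vehicle for no effect and minimum signal wells for full effect; inactives centre near -20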
Mtb H37Rv – M. tuberculosis H37Rv growth inhibitors, H37Rv strain (AID 1626) | M. tuberculosis H37Rv growth inhibition; higher % means a stronger effect | one-dose inhibition, % at 10 µM; IC50 in µM for titrated hits | actives 0.95% (n = 220,000);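 active = confirmed in a dose series; inconclusive = inhibition above 80% but not taken into the dose series; inactive = below 80% or under 30% at every dose of the series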;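 note: bacteria incubated seven days before Alamar blue readout; 0% = bacteria only wells and 100% = bacteria with antibiotic wells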
Arbovirus anti – blocks arbovirus infection; arbovirus infection cell-based antiviral screen; inhibition, % at 10 µM; actives 0.37% (n = 200,000);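 active = inhibition from about 30%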;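 note: bluetongue infection of BSR cells; cell survival read as ATP light after 72 h; 0% = infected wells without compound and 100% = uninfected wells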
Mtb bLac sens – beta-lactam sensitization of Mtb H37Rv; inhibition, % at 25 µM; actives 0.27% (n = 330,000); M. tuberculosis H37Rv growth with meropenem, percent inhibition; hits of this screen are not shown here;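 active = about 74% or more and at least 40 points above the plate without the antibiotic, then above 30% in a dose series; inconclusive = first-round hits that could not be retested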;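 note: growth measured after seven days incubation then overnight dye step; 0% = bacteria only wells and 100% = bacteria with antibiotic; twin plates without the antibiotic show which effects depend on it; some results filed as inactive read as strong as hits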
RecA splice inh – inhibitors of M. tuberculosis RecA intein splicing; P9WHJ3; cell-free RecA intein splicing, fluorescence; inhibition, %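 (about 9 µM by stock and volumes)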; actives 0.75% (n = 290,000); AID 2221; in the data active = inhibition above about 30%; inconclusive = no clear call, values can overlap the other calls;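 note: 0% = vehicle wells and 100% = reference inhibitor control wells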
Target sequence (P9WHJ3 whole entry, looked up, canonical isoform): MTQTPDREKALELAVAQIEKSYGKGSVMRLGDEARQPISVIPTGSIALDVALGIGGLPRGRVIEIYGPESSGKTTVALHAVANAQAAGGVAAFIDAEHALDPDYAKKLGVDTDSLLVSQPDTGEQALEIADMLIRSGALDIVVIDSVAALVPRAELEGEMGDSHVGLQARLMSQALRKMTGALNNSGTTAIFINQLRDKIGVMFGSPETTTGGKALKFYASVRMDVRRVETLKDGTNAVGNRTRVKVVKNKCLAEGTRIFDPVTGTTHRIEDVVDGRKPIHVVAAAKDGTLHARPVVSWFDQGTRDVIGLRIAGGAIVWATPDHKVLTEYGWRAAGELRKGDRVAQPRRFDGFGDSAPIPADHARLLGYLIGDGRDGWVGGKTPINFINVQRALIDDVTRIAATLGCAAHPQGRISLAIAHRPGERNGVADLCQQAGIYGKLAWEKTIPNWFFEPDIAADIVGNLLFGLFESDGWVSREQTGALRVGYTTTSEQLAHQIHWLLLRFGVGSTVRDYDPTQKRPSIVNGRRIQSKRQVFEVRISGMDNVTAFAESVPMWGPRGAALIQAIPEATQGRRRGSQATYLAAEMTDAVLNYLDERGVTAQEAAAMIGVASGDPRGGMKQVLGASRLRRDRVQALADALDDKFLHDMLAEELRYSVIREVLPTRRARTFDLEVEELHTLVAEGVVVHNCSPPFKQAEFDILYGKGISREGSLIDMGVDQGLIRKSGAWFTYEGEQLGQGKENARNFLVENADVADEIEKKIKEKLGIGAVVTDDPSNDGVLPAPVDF
An asterisk follows results filed as active; ? = inconclusive; / = not tested or not shown; & = joins results of further samples.

Below each compound: YopH inh, Mtb H37Rv, Arbovirus anti, Mtb bLac sens, RecA splice inh
CCOC(=O)C(c1ccccc1)C(Nc1ccc(Cl)c(Cl)c1)c1ccccn1 (configuration not stated)
 : /, 3%, /, -3, -0.2
COc1ccc2c(c1OC)CN1CCc3cc4c(cc3[C@@H]1[C@@H]2O)OCO4
 : -34, -9%, 1, 10, -4.9
O=C(c1ccc(Cl)c(S(=O)(=O)N2CCOCC2)c1)N1CCOCC1
 : /, /, /, 0, -3.2
CN(C)/C=C/C(=O)c1ccc(S(=O)c2ccccc2)cc1 (configuration not stated)
 : /, -11%, 15, 0, 0.0
COc1ccc(OC)c(NC(=O)C(C)Oc2ccc(Br)cc2)c1 (configuration not stated)
 : /, 6%, -2, 1, /
C/C(=N\NC(=O)c1cc(O)cc(O)c1)c1ccc(NC(=O)Cc2ccccc2)cc1
 : /, /, /, -8, 0.5
Nc1cccc2c1C(=O)N(C(=O)c1ccc(Cl)c(S(=O)(=O)N3CCCCCC3)c1)C2=O
 : -12, -1%, 2, -4, -410
COc1cc(/C=C/c2ccc3cccc([N+](=O)[O-])c3n2)ccc1OCC#N
 : -16, 27%, 6, 4, -10
CCCOc1ccc(C(CC(=O)O)NC(=O)CC(c2ccccc2)c2ccccc2)cc1 (configuration not stated)
 : /, -6%, 5, -7, -4.8
O=C(N/C=N/OCc1cccc(C(F)(F)F)c1)N1OC[C@@H]2COc3ccc4ccccc4c3[C@@H]21
 : 10, 48%, 5, 5, 2.3
O=C(O)CC12CC3CC(C1)CC(n1ncc(NCc4ccco4)c(Cl)c1=O)(C3)C2
 : /, -10%, /, -5, 6.4
S=C(NCCc1ccccc1)Nc1ccc(N2CCCCC2)cc1
 : /, /, /, ?, -1.9
CN(C)S(=O)(=O)c1cc(C(=O)NCC2CCCO2)c(Cl)cc1Cl (configuration not stated)
 : -22, 0%, -1, -13, -0.4
CN(CC(=O)N1CCCC1)S(=O)(=O)c1cc(Cl)ccc1Cl
 : -27, -1%, 4, ?, 2.6
Cc1cccc(N(CC(=O)NC2CCCC2)C(=O)CCC(=O)Nc2nc(C)cs2)c1
 : /, /, /, 5, -1.5
O=c1cc2ncc(-n3cc([N+](=O)[O-])cn3)cn2[nH]1
 : /, 5%, 24, 1, -2.4
CN(C)C(=O)CN1CCN(Cc2nc(CC3CC3)no2)CC1
 : /, -8%, /, 2, -1.1
O=C(Cc1cc(=O)[nH][nH]1)N/N=C/C=C/c1ccccc1
 : -10&-17, -4%, 0&4, 9&-2, 85*
COc1ccc(-c2noc(N3CCC(C(=O)N(C)c4ccccc4C)CC3)n2)cc1
 : /, /, /, 3, 1.1
CCOC(=O)N1CCN(C(=O)c2c(-c3ccccc3Cl)noc2C)CC1
 : /, /, /, 1, -1.2
CCc1ccc(C2CC(c3ccccc3)n3ncnc3N2)cc1 (configuration not stated)
 : -24, 61%, 12, 14, -0.8
O=C(NCCC1CCCCN1S(=O)(=O)c1ccc(Cl)cc1)C(=O)NCc1ccncc1 (configuration not stated)
 : /, /, /, -4, 1.9
CCOc1ccc2oc(C(=O)OCC(=O)NC(=O)NC)c(C)c2c1
 : /, 7%, /, 7, -1.2
CCOc1cc(C(=O)Nc2ccc(N3CCOCC3)cc2)cc(Br)c1OC
 : /, -5%, -13, 2, -0.7
CCOc1ccc(CC(=O)Nc2sc(Cc3ccccc3)c(C)c2C(N)=O)cc1OCC
 : -48, 2%, -1, 1, -0.6
O=C(CNc1ccc2c(c1)OCO2)N/N=C\c1cn(Cc2ccc(F)cc2)c2ccccc12
 : -5, 9%, -13, /, /
COc1ccccc1NC(=O)c1nn(-c2ccc(Cl)cc2)ccc1=O
 : -21, -1%, -1, 0, 1.0
COc1ccc(OC)c(CN(CCCN2CCOCC2)S(=O)(=O)c2ccc(NC(C)=O)cc2)c1
 : -32, -3%, 23, -2, -5.9
Cc1cccc2c1cnn2C(=O)CCC(=O)N1CC(C)CC(C)C1 (configuration not stated)
 : /, /, /, 9, 1.3
CN(CCCNC(=O)c1cc2c(=O)[nH]c3ccccc3c2n1C)Cc1ccccc1
 : /, 9%, -14, -5, -1.3

Fetched one by one from above:
Below each compound: YopH inh, Mtb H37Rv, Arbovirus anti, Mtb bLac sens, RecA splice inh
C/C(=N\NC(=O)c1cc(O)cc(O)c1)c1ccc(NC(=O)Cc2ccccc2)cc1
 : /, /, /, -8, 0.5
CCOC(=O)N1CCN(C(=O)c2c(-c3ccccc3Cl)noc2C)CC1
 : /, /, /, 1, -1.2

Further structures
Below each compound: YopH inh, Mtb H37Rv, Arbovirus anti, Mtb bLac sens, RecA splice inh
O=C(c1cc(-c2ccncc2)nc2ccccc12)N1CCC2(CC1)OCCO2
 : -25, /, 3, -1, /
CC1(C)OC(=O)C(=CNc2cccc(O)c2)C(=O)O1
 : 3, 2%, 7, -5, -5.2
COc1ccc(OCC(=O)Nc2cccc(NC(=O)c3ccco3)c2)cc1
 : /, -2%, -8, 4, -3.2
O=C1CCc2cc(S(=O)(=O)N3CCCCC3)cc3c2N1CCC3
 : /, /, /, -11, -2.8
COc1cc(/C=C2/C(=O)c3cccc([N+](=O)[O-])c3C2=O)c(Br)cc1O
 : -24, -7%, -33, 4, /
CCOC(=O)C1(CCOc2ccccc2)CCN(Cc2ccc3nonc3c2)CC1
 : /, 11%, 4, 1, 6.5
Cc1cc(Nc2ccccc2)c2c([N+](=O)[O-])cc(C)c(C)c2n1
 : -24, 3%, -4, -3, -11
CCN(CC)C(=O)c1sc(NC(=O)c2cc(-c3ccc(C)s3)nc3ccccc23)c(C(=O)OC)c1C
 : -3, 12%, -4, 4, -2.9
O=C(Nc1ccccc1)C1=C[C@@H](C2CC2)C[C@@H](OCCCCO)O1
 : /, -2%, 2, -6, -1.0
O=C(Nc1ccncc1)c1cccc(S(=O)(=O)N2CCCC2)c1
 : /, /, /, -3, -1.5
CCN(CC)CC(O)CN(c1ccccc1)S(=O)(=O)c1ccc2ccccc2c1 (configuration not stated)
 : /, /, /, -8, -0.8
NNc1nc2cc3c(cc2s1)OCCO3
 : /, /, /, 1, -6.4
COc1ccc(OC)c(-c2csc(NC(=O)C3=NN(c4ccccc4)C(=O)CC3)n2)c1
 : /, 8%, 15, 0, 3.9
O=C(CCS(=O)(=O)c1ccc(Br)cc1)N1CCN(Cc2ccccc2)CC1
 : -12, 0%, 6, -10, -0.5
Cc1nn(-c2ccccc2)c(N2CCCC2)c1/C=N/NC(=O)c1cccc(S(=O)(=O)Nc2ccc(Cl)cc2)c1
 : -19, 10%, -14, 64, -2.5
CCOn1c(=O)c(-c2cccs2)[n+]([O-])c2ccccc21
 : -25, 51%, -5, 2, 0.8
CCCCc1ccc(N/C(N)=N/c2nc(C)cc(C)n2)cc1
 : /, 80%, /, 97, 5.4
CC(C)(C)c1ccc(OCCC(=O)NNC(=O)c2ccccc2)cc1
 : /, /, /, -6, -1.6
Cc1ccc(C(c2nnnn2C2CCCCC2)N2CCc3ccccc32)cc1 (configuration not stated)
 : -9, 9%, 4, 10, 8.9
CCCS(=O)(=O)N1CCCC(C(=O)NCCc2ccc(Cl)cc2)C1 (configuration not stated)
 : 5, -2%, 3, -3, 1.0
O=C1c2ccccc2C(=O)N1CCCc1nc(-c2ccccn2)no1
 : -20, -2%, 8, 1, 0.0
CCN(CC)C(=S)Nc1ccc(C(=O)OC)cc1
 : /, -8%, 4, 0, -0.3
COc1ccc(CNC(=O)CCCC2=NS(=O)(=O)c3ccccc3N2)cc1
 : /, /, /, 10, -1.2
O=C1/C(=C/c2cccc(Cl)c2)SC(=S)N1CCC(=O)N1CCCCC1CCO (configuration not stated)
 : /, /, /, 57, 18
COc1cc(/C=C/C(=O)O)ccc1O
 : /, -4%, /, -9, -3.3
CC(=N)c1c(O)c2ccccc2oc1=O
 : /, 12%, /, 0, -1.3
CCC(C(=O)Nc1c[nH]c(=O)[nH]c1=O)c1ccccc1 (configuration not stated)
 : -25, 1%, -8, -3, 0.3
Cc1cccc(N(CC(O)CN2CCOCC2)S(=O)(=O)c2ccccc2)c1 (configuration not stated)
 : /, /, /, -10, -0.7
COC(=O)c1cc(S(=O)(=O)N2CCC(c3cc(OC)ccc3OC)C2)c[nH]1 (configuration not stated)
 : /, /, /, 1, 0.4
COc1ccccc1C1CC(c2ccc(Cl)cc2)Nc2ncnn21 (configuration not stated)
 : -8, 11%, 3, 99, 1.2

By substructure, the compounds so far containing a thiophene ring, fused or not.
Below each compound: YopH inh, Mtb H37Rv, Arbovirus anti, Mtb bLac sens, RecA splice inh
CCOc1ccc(CC(=O)Nc2sc(Cc3ccccc3)c(C)c2C(N)=O)cc1OCC
 : -48, 2%, -1, 1, -0.6
CCN(CC)C(=O)c1sc(NC(=O)c2cc(-c3ccc(C)s3)nc3ccccc23)c(C(=O)OC)c1C
 : -3, 12%, -4, 4, -2.9
CCOn1c(=O)c(-c2cccs2)[n+]([O-])c2ccccc21
 : -25, 51%, -5, 2, 0.8

(list continues)
Below each compound: YopH inh, Mtb H37Rv, Arbovirus anti, Mtb bLac sens, RecA splice inh
CC(C)Nc1nc(NC(C)C)nc(SCC(N)=O)n1
 : /, -6%, -2, -2, -0.1
O=C(NCC1COc2ccccc2O1)c1cccs1 (configuration not stated)
 : /, /, /, 8, 0.0
CCn1c(SCC(=O)Nc2nccs2)nnc1-c1ccc(C)cc1
 : -2, -4%, -7, 10, -0.9
CC1CCCN(C(=O)c2cccc(S(=O)(=O)N3CCCc4ccccc43)c2)C1 (configuration not stated)
 : /, /, /, 1, 4.3
COc1ccc2cc(C(=O)O)ccc2c1
 : -14, -10%, 1, 2, -1.3
C/C(=N\NC(=O)c1ccccc1O)C1C(=O)c2ccccc2C1=O
 : -22, -1%, 18, 6, 27
O=[N+]([O-])/C=C1\NCCN1Cc1ccc(Cl)nc1
 : -26, -6%&1%, 0&2, -1&7, -3.3&0.7
CC(=O)c1cnc(SCc2ccc(Cl)cc2)nc1C
 : /, 2%, -9, 5, 2.2
COC(=O)c1cc(=O)n(Cc2ccc(OC)cc2)c(=NCc2ccc(OC)cc2)s1
 : /, -6%, 9, 2, /
Cc1[nH]c2nc3ccccc3n2c(=O)c1CCC(C)C
 : /, /, /, 3, -2.8
Cc1cc(N2CCC(C)CC2)nc(NCc2ccccc2)n1
 : -7, ?, -32, 79, 5.7
CC1CCCN(C(=O)COc2ccc(NC(=O)c3cccs3)cc2)C1 (configuration not stated)
 : /, -1%, -1, 4, 44*
CCC(C)C(=O)Nc1nnc(SCC(=O)NC(C)(C)C)s1 (configuration not stated)
 : /, 0%, 8, -2, -2.4
c1ccc2oc(-c3[nH]ncc3CN(Cc3ccncc3)CC3CCCO3)cc2c1 (configuration not stated)
 : /, -3%, 2, 1, /
CC(NC(=O)c1ccccc1NC(=O)c1ccco1)c1ccccc1 (configuration not stated)
 : -37, 8%, 0, 7, -1.2
OC1(c2cccnc2)CCN(Cc2nnnn2C2CCCCC2)CC1
 : -12, -6%, 4, 1, 2.3
O=C(NCc1ccccn1)c1ccc(COc2ccc(Cl)cc2)o1
 : -38, -1%, 6, 0, 4.3
Cc1ccc(-n2nc(C)c3c(C)onc3c2=O)cc1
 : /, -9%, /, -4, -0.9
COc1ccc(CCN(C)C(=O)CSc2nnc(-c3ccco3)o2)cc1OC
 : /, /, /, -15, 1.1
CN(C)C(=O)c1ccc(-n2cccn2)nc1
 : /, 3%, 12, 1, 1.9
CCC(C)CN1CCC(CO)(Cc2ccccc2Cl)CC1 (configuration not stated)
 : /, -1%, -11, 3, -1.0
COc1ccc(N2C(=O)NC(=O)/C(=C\c3ccc([N+](=O)[O-])s3)C2=O)cc1
 : /, -1%, -2, /, 7.5
O=C(COC(=O)c1ccccc1[N+](=O)[O-])c1ccc(C2CCCCC2)cc1
 : -17, 5%, 4, -1, 3.0
COc1ccccc1OCC(=O)Nc1ccc(CSc2ccccc2)cc1C
 : -9, -3%, -15, 10, -4.6
Cc1ccccc1-n1c(C)nc2sccc2c1=O
 : -17, -1%, 1, -7, -3.1
CC(C)OC(=O)CSc1nnc(-c2ccccn2)n1C
 : -22, 4%, -5, -1, 0.0
CC(C)C(C)NC(=O)CN1C(=O)NC(C)(c2ccc3ccccc3c2)C1=O (configuration not stated)
 : /, /, /, -1, -0.7
CCN(CC(=O)Nc1ccccc1C(F)(F)F)C(=O)c1cc(S(=O)(=O)N(C)C)ccc1N1CCCC1
 : /, /, /, -12, -1.1
COc1cc(NS(=O)(=O)c2ccc(N=Cc3c(C)[nH]n(-c4ccccc4)c3=O)cc2)nc(OC)n1
 : -37, -4%, -6, 13, 1.4
CC(=O)Nc1ccc(S(=O)(=O)NCCc2cc3ccc(C)c(C)c3[nH]c2=O)cc1
 : /, /, /, -5, 1.1

Only part of the results is shown; the hit share may differ from the screen's.
